CBX7 inh = CBX7 chromodomain binding inhibitors, primary screen, biochemical, AlphaScreen. normalised signal (fraction of DMSO) (no concentration beside the values). 1.1% of 66,000 active. AID 1224903, 2016. AlphaScreen His6-CBX7 / biotin-H3K27me3 peptide binding; active compounds read low; in the data active = normalised signal below about 0.5;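 note: 100 nL library stock added to about 20 µL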
Target sequence (O95931 whole entry, looked up): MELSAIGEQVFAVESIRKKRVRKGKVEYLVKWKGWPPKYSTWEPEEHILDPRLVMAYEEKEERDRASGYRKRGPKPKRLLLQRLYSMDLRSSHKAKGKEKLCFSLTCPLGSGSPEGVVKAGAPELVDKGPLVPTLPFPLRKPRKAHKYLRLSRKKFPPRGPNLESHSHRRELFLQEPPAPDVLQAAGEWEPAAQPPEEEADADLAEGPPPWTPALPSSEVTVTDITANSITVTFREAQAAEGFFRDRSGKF
CBX7 inh z-score = further read-out of CBX7 inh, marked with its call; z-score; measured here: z-score of CBX7 signal; some inactives read as strong as hits; reference of the scale not given here;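 same signal on another scale; lower means less binding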
Starred values were filed as active, the others as inactive; & = joins results of further samples.

canonical_smiles | CBX7 inh | CBX7 inh z-score
CCCCNC(=O)c1ccc2c(c1)N(Cc1ccc(Cl)cc1)C(=O)c1ccccc1S2=O (configuration not stated) | 0.99 | -0.24
Cc1ccc(-n2nc3c(c2NC(=O)c2ccc(Cl)cc2)CS(=O)(=O)C3)cc1 | 1.1 | 0.36
COc1ccc(-c2nc3ccc(C(=O)O)cc3nc2-c2ccc(OC)cc2)cc1 | 1.1 | 0.55
COC(=O)c1ccc(C2C(Oc3ccccc3C)C(=O)N2CCc2ccc(OC)c(OC)c2)cc1 (configuration not stated) | 0.82 | -0.63
COCCCNC(=O)c1cc(Nc2ccc(OC)cc2)nc2ccccc12 | 0.84 | -1.9
CCOC(CNC(=O)c1ccc2c(c1)ncn2-c1cccc(F)c1)OCC | 0.98 | -0.6
CCN(c1ccccc1)S(=O)(=O)c1ccc(C(=O)Nc2nnc(C3CC3)o2)cc1 | 0.066* | -1.6*
CCc1ccc(NC(=O)N(C2CCCCC2)C(C)c2ccccn2)cc1 (configuration not stated) | 0.98 | -0.24
Cc1ccn2c(NC3CCCC3)c(-c3ccncc3)nc2c1 | 0.98 | -0.96
CC(NC(=O)C1(S(=O)(=O)c2ccc(Cl)cc2)CC1)c1ccccc1 (configuration not stated) | 1 | 0.68
CCOc1ccc(NC(=O)c2cnc3cc(C)ccn3c2=O)cc1 | 1 | 0.84
Cc1cc(=O)n2nc(N3CCC(C(=O)NCCCSC4CCCCC4)CC3)sc2n1 | 1.1 | 0.48
COc1ccccc1-c1cc2nc(C)c(CCC(=O)Nc3ccc(F)cc3F)c(C)n2n1 | 1.1 | 2.2
CCN(c1ccccc1)S(=O)(=O)c1ccc2[nH]cc(C(=O)NCCCOC)c(=O)c2c1 | 1.1 | 1.6
O=C1CC(N2CCN(C(c3ccccc3)c3ccccc3)CC2)C(=O)N1c1ccccc1 (configuration not stated) | 0.89 | -1.7
O=C(Cc1n[nH]c(=O)c2ccccc12)Nc1ccccn1 | 1.1&1 | 0.45&0.05
Fc1ccc(-c2cc(-c3nc(-c4cccnc4)no3)c3ccccc3n2)cc1 | 1.1 | 1.1
COc1ccc(Br)cc1C(=O)Nc1ccc(-c2nc3ccccc3o2)c(O)c1 | 1.1 | 2.5
Cc1ccc(CN2C(=O)c3ccccc3Sc3ccc(C(=O)NC4CCCC(C)C4C)cc32)cc1 (configuration not stated) | 0.92 | -0.83
COc1cccc(-c2cc(C(F)(F)F)nc(NCc3ccc(F)cc3)n2)c1 | 1.7 | 5.2

4 compounds out of the list, ordered by formula weight, descending:
canonical_smiles | CBX7 inh | CBX7 inh z-score
COc1ccccc1-c1cc2nc(C)c(CCC(=O)Nc3ccc(F)cc3F)c(C)n2n1 | 1.1 | 2.2
COc1ccc(-c2nc3ccc(C(=O)O)cc3nc2-c2ccc(OC)cc2)cc1 | 1.1 | 0.55
CCOC(CNC(=O)c1ccc2c(c1)ncn2-c1cccc(F)c1)OCC | 0.98 | -0.6
O=C(Cc1n[nH]c(=O)c2ccccc12)Nc1ccccn1 | 1.1&1 | 0.45&0.05

Next compounds follow.
canonical_smiles | CBX7 inh | CBX7 inh z-score
Cc1cccc(-n2nc3c(c2NC(=O)c2ccc(Br)cc2)CSC3)c1C | 1.1 | 1.1
Cc1ccc(-c2cc(C(=O)O)c3cc(Br)ccc3n2)s1 | 0.95 | -1.1
CCOC(=O)c1cnc2ccc(OCC)cc2c1Nc1cccc2ccccc12 | 0.93 | -0.68
CC12C=CC(O1)C1C(=O)N(c3ccc(Cl)c(C(=O)O)c3)C(=O)C12 (configuration not stated) | 0.88 | -1.9
CCN1CCCC1CNC(=O)c1cc(Nc2ccc(OC)cc2OC)nc2ccccc12 (configuration not stated) | 0.7 | -4.5
CCCC(=O)NC(C)c1nc2ccccc2n1CCC (configuration not stated) | 1.2 | 1.8
O=[N+]([O-])c1cc(C(F)(F)F)ccc1-n1nc(-c2ccc(Cl)cc2)cc1-c1ccc(Cl)cc1 | 0.65 | -5.3
COc1ccc(Cn2c(=O)c3cccnc3n(Cc3ccc(C)cc3)c2=O)cc1 | 1.1 | 1.9
Cc1sc2ncn(CC(=O)Nc3cccc(Cl)c3)c(=O)c2c1S(=O)(=O)N1CCC(C)CC1 | 1.1 | 1.5
COc1ccc(Nc2nc(-c3cc4ccccc4o3)cs2)cc1 | 0.98 | -0.26
O=C(Nc1nnc(CCS(=O)(=O)c2ccc3ccccc3c2)s1)c1ccccc1Cl | 1 | 1.6
O=C(NCCC1=CCCCC1)C1CCCN(c2nnc(-n3cccc3)s2)C1 (configuration not stated) | 0.94 | -1.3
CCCCNC(=O)CCc1nc(-c2ccc(OC)cc2)no1 | 1.1 | 1.9
C=CCN1C(=O)CSc2ccc(C(=O)NCCc3ccc(Cl)cc3)cc21 | 0.96 | -0.97
Cc1ccccc1Nc1c(-c2ccc(N3CCOCC3)cc2)nc2ccc(Br)cn12 | 0.76 | -2.5
O=C(Nc1nc2ccccc2n1CCOc1ccccc1)c1ccc(Cl)cc1 | 0.78 | -2.4
Cc1cc(N2CC(C)CC(C)C2)nc2ccc(NC(=O)CCC(=O)Nc3ccc(F)c(Cl)c3)cc12 (configuration not stated) | 1 | 0.77
COc1ccccc1CNC(=O)c1ccc2c(=O)n3c(nc2c1)CCCCC3 | 1 | 0.87
COc1cccc(CNS(=O)(=O)c2ccc3c(c2)CCN3C(=O)C2CCC2)c1 | 0.97 | -0.97
CCc1ccc(-c2nc(C(=O)NCCCOC)c(C)o2)cc1 | 0.95 | -2.4
Cc1ccc(C(=O)Nc2c(C(=O)Nc3ccccn3)cnn2-c2ccccc2)cc1 | 0.93 | -1.8
COc1ccccc1NC(=O)CSc1nnc(CNC(=O)c2ccccc2F)o1 | 0.97 | -0.75
CCN1CCN(C(=O)CCc2c(C)nc3c(c(C)nn3-c3ccc(C)cc3)c2C)CC1 | 1.1 | 0.9
Cc1ccc(NC(=O)c2cccc(C(F)(F)F)c2)c(C(=O)c2ccccc2)c1 | 0.87 | -0.56
CC(NC(=O)C(=O)NCc1ccc2c(c1)OCO2)C(c1cccs1)N1CCN(C)CC1 (configuration not stated) | 0.98 | -0.52
CCc1cccc(NS(=O)(=O)c2ccc3c(c2)CCC(=O)N3)c1 | 0.95 | -1.2
Cc1cc(C)cc(NC(=O)c2cc3c(CO)cnc(C)c3oc2=O)c1 | 1 | 1.2
Cc1onc(-c2ccccc2Cl)c1C(=O)N(C)C1CCCCC1 | 1 | -0.089
COc1ccc(Cl)cc1NC(=O)c1cc(-c2ccccc2)nc2ccccc12 | 1.1 | 1.3
CCOc1ccc(NC(=O)Cn2cc(S(=O)(=O)c3ccccc3)c(=O)c3cc(F)ccc32)cc1 | 0.75 | -3.6
COc1ccccc1NC(=O)CCc1nc(-c2ccc(C)cc2)no1 | 1.1 | 0.12
CCOC(=O)c1[nH]c2c(c1Cc1ccccc1C)C(=O)CC(c1ccccc1)C2 (configuration not stated) | 0.79 | -2.6
Cc1ccc(NC(=O)CN2C(=O)c3ccccc3Sc3ccc(C(=O)N4CCCC4)cc32)cc1C | 1 | 0.071
COc1ccccc1-n1cc(-c2ccccc2)nc1SCC(=O)Nc1ccccc1Cl | 0.78 | -7.1
O=C(NCc1cccnc1)C1=CCN(S(=O)(=O)c2ccc(F)cc2)CC1 | 0.95 | -1.4
CCOC(=O)c1cnc2cc(C(F)(F)F)ccc2c1Nc1ccc(OCC)cc1 | 0.72 | -4.8
Cc1ccc(-n2ncc3c(=O)n(-c4ccc(F)c(Cl)c4)c(C)nc32)cc1 | 1.1 | 0.94
CC(=O)NC(C)c1nc2ccccc2n1Cc1c(F)cccc1Cl (configuration not stated) | 0.98 | -0.76
Cc1ccc(N2C(=O)c3ccccc3C2Nc2ccccc2C)nc1 (configuration not stated) | 0.96 | -1.2
Cc1ccc(S(=O)(=O)c2cn(CC(=O)Nc3ccccc3)c3cc4c(cc3c2=O)OCO4)cc1 | 0.83 | -2.5
CCc1ccc(-c2csc(Nc3cc(C)ccn3)n2)cc1 | 0.91 | -1
CCOCCCNC(=O)CCc1cn(Cc2ccc(C)cc2)c2ccccc12 | 0.7 | -0.3
Cc1ccc2c(c1)N(CCCC(=O)NC1CCC(C)CC1)C(=O)CO2 (configuration not stated) | 1.5 | 1
O=C(NCCN1CCOCC1)c1ccc2c(c1)N(Cc1ccccc1F)C(=O)c1ccccc1S2 | 1 | 1.2
CCOCCCN1C(=O)c2ccccc2C1C(=O)NC1CCC(C)CC1 (configuration not stated) | 1.1 | 1.9
Cc1cccc(-c2noc(-c3ccccc3F)n2)c1 | 1.9 | 3.8
CCN1CCN(c2cc(C)c3cc(NC(=O)c4ccc(F)cc4)ccc3n2)CC1 | 1.1 | 0.51
COc1ccc(NC(=O)Cn2cc(S(=O)(=O)c3ccc(C)cc3)c(=O)c3cc(OC)ccc32)cc1 | 0.92 | -1.1
Cc1cccc(Nc2nc(-c3ccncc3)cs2)c1 | 0.72 | -3.1
Cc1ccc(CNC(=O)CCn2nc(-c3ccc(C)cc3)ccc2=O)cc1 | 0.99 | -0.2
COc1ccc(-n2nc3ccc(NC(=O)c4ccc(Cl)cc4Cl)cc3n2)cc1 | 1.1 | 1.6
O=C(Nc1c2c(nn1-c1ccc(F)cc1)CS(=O)(=O)C2)c1ccc(Cl)cc1 | 1.1 | 0.72
CCN(CC)CCCNS(=O)(=O)c1ccc2c(c1)CCN2C(=O)C1CCC1 | 0.97 | -0.94
COCCCNc1nc(-c2ccccc2)nc2ccccc12 | 0.94 | -0.56
CCc1ccccc1NS(=O)(=O)c1ccc2[nH]cc(C(=O)NCC3CCCO3)c(=O)c2c1 (configuration not stated) | 0.93 | -0.87
COc1cc2c(C(=O)NCc3ccc(F)cc3)cn(CC(C)C)c(=O)c2cc1OC | 1.1 | 1.4
Cc1ccc2c(c1C)NC(=O)CC2c1ccccc1C(F)(F)F (configuration not stated) | 0.95 | -0.67
CCOCCCNC(=O)c1ccc2c(c1)N(Cc1ccccc1C)C(=O)c1ccccc1S2=O (configuration not stated) | 0.99 | -0.11
Cc1cc(NC(=O)COc2ccc(Cl)cc2)no1 | 0.96 | -0.88
COc1cccc(-c2nc(CS(=O)(=O)CC(=O)Nc3ccccc3Br)c(C)o2)c1 | 1 | 0.45

Given with values under each structure: part of the list above.
Value order: CBX7 inh, CBX7 inh z-score
> COc1ccc(NC(=O)Cn2cc(S(=O)(=O)c3ccc(C)cc3)c(=O)c3cc(OC)ccc32)cc1
    0.92, -1.1
> Cc1cc(=O)n2nc(N3CCC(C(=O)NCCCSC4CCCCC4)CC3)sc2n1
    1.1, 0.48

(listing goes on)
canonical_smiles | CBX7 inh | CBX7 inh z-score
FC(F)(F)c1cc(-c2ccc(Cl)cc2)nc(NCc2cccs2)n1 | 1.4 | 16
COc1ccc(CNS(=O)(=O)c2ccc3c(c2)NC(=O)CC(=O)N3)cc1 | 1.1 | 0.12
CCn1c(C(=O)NCc2ccccc2OC)cc2sc(Cl)cc21 | 1 | 0.016
Cc1ccc(S(=O)(=O)NCCc2cc3ccc(C)cc3[nH]c2=O)cc1 | 1.1 | 1.2
COc1cc(NS(=O)(=O)c2ccc(NC(=O)c3ccccc3)cc2)ncn1 | 0.96 | -0.61
CCN(CCCNC(=O)C1CCCN(S(=O)(=O)CC)C1)c1cccc(C)c1 (configuration not stated) | 0.93 | -1.3
Cc1ccc(-c2nc(CS(=O)(=O)CC(=O)NCCc3c[nH]c4ccccc34)c(C)o2)cc1 | 0.65 | -0.72
O=C(O)c1ccc(-c2nc(-c3ccc(-c4ccccc4)cc3)c(-c3ccc(-c4ccccc4)cc3)[nH]2)cc1 | 0.54 | -1.8
CCOc1cc2c(cc1OCC)C(c1cc(Cl)ccc1O)NCC2 (configuration not stated) | 0.66 | -9.2
CCOC(=O)c1c(NC(=O)c2ccc(C(C)(C)C)cc2)sc(C)c1C | 1.3 | 4.6
O=C(C1CCC1)N1CCc2cc(S(=O)(=O)NCCN3CCCCCC3)ccc21 | 1.1 | 3.2
Cc1oc(-c2cccc(Cl)c2)nc1Cn1c(SCc2ccc(F)cc2)nc2ccncc21 | 0.96 | -1.8
CCC(C)NC(=O)CSc1nc(NC2CCCCC2)c2ccccc2n1 (configuration not stated) | 1 | 1.8
CCOc1ccc2nc(N3CCC(C(=O)NCCC(C)C)CC3)sc2c1 | 0.95 | -0.23
CCCOc1ccccc1C1CC(=O)NC2=C1C(=O)CC(C)(C)C2 (configuration not stated) | 1 | 0.11
O=C(Cn1nc(Cc2ccncc2)c2ccccc2c1=O)NCc1ccccc1Cl | 1.2 | 1.7
CC(=O)Nc1cccc(NC(=O)CSc2nnc(Cc3cccn3C)n2CCc2ccccc2)c1 | 0.9 | -2.5
CCN1C(=O)c2ccccc2S(=O)c2ccc(C(=O)NCc3cccnc3)cc21 (configuration not stated) | 1 | 0.37
C=CCN(c1ccccc1)S(=O)(=O)c1ccc2[nH]cc(C(=O)NCc3ccccn3)c(=O)c2c1 | 1.2 | 2.7
CN(Cc1ccccc1)C(=O)c1n[nH]c(=O)c2ccccc12 | 1.1 | 0.93
COc1ccc(-n2nnc3c(=O)n(CC(=O)Nc4cc(OC)ccc4OC)cnc32)cc1 | 0.95 | -1
COc1ccc(C(=O)NCc2nnc(SCC(=O)Nc3nc4ccc(C)cc4s3)o2)cc1OC | 1 | 0.37

Part of the list above, with two lines to a compound:
Below each compound: CBX7 inh	CBX7 inh z-score
> CCOC(=O)c1c(NC(=O)c2ccc(C(C)(C)C)cc2)sc(C)c1C
→ 1.3	4.6
> CCCOc1ccccc1C1CC(=O)NC2=C1C(=O)CC(C)(C)C2 (configuration not stated)
→ 1	0.11

Screening results from PubChem BioAssay.

Not all compounds are listed. The share of hits here may be higher or lower than overall.
